KCNQ2 pot: KCNQ2 (rat) channel potentiation; O88943; CHO-K1 KCNQ2, FluxOR thallium flux fluorescence; active compounds read high; B-score at 10 µM; 310,000 compounds, 0.54% hits; AID 2239;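 active = fluorescence ratio B-score at least 3 SD of library B-scores, with initial fluorescence B-score within 3 SD, cut at about 5.3 in these data; same plate scores as AID 2156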;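 also: B-score of peak minus minimum over baseline fluorescence ratio after K+ and Tl+ stimulus; positive B-score means potentiation of KCNQ2 with more thallium influx and brighter signal; only the inactives scoring about 0 or higher are listed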
Target sequence (O88943 whole entry, looked up): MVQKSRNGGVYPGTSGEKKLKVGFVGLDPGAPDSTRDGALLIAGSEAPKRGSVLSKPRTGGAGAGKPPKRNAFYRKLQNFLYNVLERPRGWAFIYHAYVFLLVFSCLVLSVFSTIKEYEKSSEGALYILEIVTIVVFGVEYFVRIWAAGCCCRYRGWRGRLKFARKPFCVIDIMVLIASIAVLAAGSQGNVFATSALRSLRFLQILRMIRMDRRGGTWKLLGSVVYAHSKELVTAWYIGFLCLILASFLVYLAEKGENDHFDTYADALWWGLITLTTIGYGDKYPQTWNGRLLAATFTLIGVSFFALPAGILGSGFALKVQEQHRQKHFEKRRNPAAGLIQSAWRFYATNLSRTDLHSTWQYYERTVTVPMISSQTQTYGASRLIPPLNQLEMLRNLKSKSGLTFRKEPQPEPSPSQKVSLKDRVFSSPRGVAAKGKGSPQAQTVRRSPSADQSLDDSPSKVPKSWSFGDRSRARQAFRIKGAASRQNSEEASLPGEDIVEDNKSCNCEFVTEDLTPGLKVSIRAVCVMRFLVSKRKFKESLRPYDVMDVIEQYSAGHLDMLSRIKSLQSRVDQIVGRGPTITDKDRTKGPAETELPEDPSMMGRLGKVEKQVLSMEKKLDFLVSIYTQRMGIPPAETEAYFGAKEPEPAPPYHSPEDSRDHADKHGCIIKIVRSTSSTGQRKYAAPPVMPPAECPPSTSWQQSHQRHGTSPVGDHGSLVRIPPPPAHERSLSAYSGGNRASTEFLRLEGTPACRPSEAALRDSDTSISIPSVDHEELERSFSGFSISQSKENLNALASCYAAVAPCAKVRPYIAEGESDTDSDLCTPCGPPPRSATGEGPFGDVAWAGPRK
KCNQ2 pot baseline: recorded beside KCNQ2 pot, whose call it bears; B-score; compound at 10 µM; measured here: initial fluorescence intensity artifact check;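 brightness before thallium and not channel activity; 0 = typical well and far values either way flag optical interference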
* marks the source's active call; other numbers are inactive results. A portion of the library; count on the stated rates, not on these rows.

The first four compounds (preview)
SMILES	KCNQ2 pot	KCNQ2 pot baseline
CC(C)CCNC(=S)Nc1ccc(F)cc1	1.2	0.08
CC(C)(C)c1ccc(C(=O)NCC(=O)N/N=C/c2cccnc2)cc1	0.2	-0.16
O=C(CSCCNS(=O)(=O)c1ccccc1)Nc1ccccc1	0.37	-0.22
Cc1noc(NS(=O)(=O)c2ccc(NC(=O)CSc3n[nH]c(-c4ccccc4)n3)cc2)c1C	0.42	-1.6

Results, previewed entries included:
SMILES	KCNQ2 pot	KCNQ2 pot baseline
CC(C)CCNC(=S)Nc1ccc(F)cc1	1.2	0.08
CC(C)(C)c1ccc(C(=O)NCC(=O)N/N=C/c2cccnc2)cc1	0.2	-0.16
O=C(CSCCNS(=O)(=O)c1ccccc1)Nc1ccccc1	0.37	-0.22
Cc1noc(NS(=O)(=O)c2ccc(NC(=O)CSc3n[nH]c(-c4ccccc4)n3)cc2)c1C	0.42	-1.6
CCC(=O)n1nc(NCc2ccc(OC)c(OC)c2)nc1NCc1ccc(OC)c(OC)c1	0.08	-2
Cc1cc(N2CCN(C(=O)/C=C/C(=O)O)CC2)c2ccccc2n1	0.01	-0.39
COc1ccc(C(C)=O)cc1COC(=O)CCC(=O)N(CC(C)C)c1c(N)n(CC(C)C)c(=O)[nH]c1=O	0.06	0.79
O=C(Nc1ccc(Oc2ccccc2)cc1)C1CCCO1 (stereo unspecified)	0.01	2.4
Cn1c(NC(=O)CCC2CCCCC2)cc(=O)n(C)c1=O	0.26	-1.4
COc1cccc(N2CCN(S(=O)(=O)c3c(C)[nH]c(C)c3C(=O)N3CCCCC3)CC2)c1	1.3	-0.17
COc1ccccc1C(=O)N1CCN(CCNC(=O)C(=O)Nc2ccc(Br)c(C)c2)CC1	0.03	1.9
O=C(CCc1n[nH]c(=O)[nH]c1=O)N/N=C/c1ccco1	0.32	0.18
COc1cc(Cl)ccc1OCc1cc(C(=O)NC(C)Cc2cnccn2)no1 (stereo unspecified)	0.33	-0.94
O=S(=O)(c1ccccc1)N1N=C(c2cccs2)CC1c1ccc(Br)cc1 (stereo unspecified)	0.07	0.51
Cc1ccccc1N(CC(=O)NCc1ccccc1)C(=O)CCC(=O)Nc1nccs1	0.82	-0.07
Cc1ccc(S(=O)(=O)N2C(=S)SCC2(C)C)cc1	2	-1.8
COc1ccc([N+](=O)[O-])cc1NC(=O)COC(=O)c1ccc(O)cc1	0.98	0.24
O=C(Nc1ccccc1)n1ccc(-c2ccc(-n3ccnc3)cc2)n1	1.4	-0.85
OCCN(CCO)CC(O)Cn1c2ccccc2c2ccccc21 (stereo unspecified)	0.58	0.39
COc1ccc(N(CC(=O)Nc2cc(C)ccc2C)S(=O)(=O)c2c(C)[nH]c(=O)[nH]c2=O)cc1	2.5	0.03
O=S(=O)(NCc1ccccc1)c1ccc(NC(=S)NCc2ccco2)cc1	3.8	-0.79
CCCc1[nH]n(-c2ccc([N+](=O)[O-])cc2)c(=O)c1C=NCCN1CCNCC1	0.01	0.39
CCc1cccc(C)c1NC(=O)C1CCCO1 (stereo unspecified)	1.1	-0.76
COc1cc(C2Nc3ccc4ncccc4c3C3=C2C(=O)CCC3)cc(OC)c1OC (stereo unspecified)	2.5	0.13
O=C(Cn1cc(C(F)(F)F)ccc1=O)N/N=C/c1ccc(F)cc1	0.19	-0.16

Going on with the list.
SMILES	KCNQ2 pot	KCNQ2 pot baseline
CC(=O)NS(=O)(=O)c1ccc(N=c2ssc3c2-c2ccc(C)cc2NC3(C)C)cc1	0.02	-1
N#Cc1cc2ccccc2nc1SCC(=O)Nc1ccccc1N1CCOCC1	0.03	-0.6
O=C(O)c1sc2cc(C(F)(F)F)cnc2c1-c1ccccn1	1.3	0.01
Cc1cc(C)c(NC(=O)C2CC(=O)N(Cc3ccccc3)C2)c(C)c1 (stereo unspecified)	2.1	1.1
COc1ccc(S(=O)(=O)Nc2cc([N+](=O)[O-])ccc2OC)cc1	0.52	-0.12
COc1ccccc1N(C)S(=O)(=O)c1ccc(C(=O)N(CC(N)=O)C(C)C)cc1	0.05	0.54
Cc1ccc(S(=O)(=O)N2CCOCC2)cc1C(=O)NCc1ccc2c(c1)OCO2	1.6	-1.1
CC(=O)Nc1ccc(S(=O)(=O)N(C#N)c2nc(C)cc(C)n2)cc1	0.31	-0.31
CCOc1ccc(NC(=O)CSc2nncc(=O)n2N)cc1	0.1	0.69
C/C(=N/NC(=O)CSc1ccccn1)c1ccc([N+](=O)[O-])cc1	0.32	-1.7
CCOc1cc(C(=O)NCCN2CCOCC2)cc(OCC)c1OCC	0.58	-1.5
N#CCSc1nnc(C2CCCCC2)n1Cc1ccccc1	2	1.4
O=[N+]([O-])c1ccc(NNS(=O)(=O)c2cc(Cl)ccc2Cl)nc1	1.4	-1
O=C(CCC(=O)CCN1CCCCC1)CCN1CCCCC1	0.66	-0.16
CCCSc1nc(N)c(C#N)c(-c2ccc(C)cc2)c1C#N	0.58	-0.47
O=C(NCCN1CCOCC1)c1ccc(F)cc1	0.74	0.15
CCCN(C(=O)COC(=O)c1[nH]c(C)c(C(=O)OC)c1C)c1c(N)n(Cc2ccccc2)c(=O)[nH]c1=O	1.2	-2
CCCCn1c(SCC(=O)Nc2cc(C)on2)nc2ccsc2c1=O	0.92	1.3
Cn1c(C(=O)OC(C(=O)NCC2CCCO2)c2cccnc2)cc2sccc21 (stereo unspecified)	0.58	0.02
Cc1cccc[n+]1CCCCCCCCCC[n+]1ccccc1C	0.32	-0.13
COc1cc([N+](=O)[O-])ccc1NC(=S)NNC(=O)CCC(=O)Nc1ccccc1Cl	0.92	-1.4
COc1ccc(S(=O)(=O)N2CCC3(CC2)OCCO3)cc1	0.57	-0.08
CCOC(=O)c1ccc(Nc2nnc(C)c3ccccc23)cc1	0.68	0.59
COc1cc(-c2noc(CCCC(=O)NC3CCCCC3)n2)cc(OC)c1OC	0.55	1
Cc1ccc2nc(C)c(C(=O)NN=C3CCN(C)CC3)n2c1	0.34	-0.72

(more compounds)
SMILES	KCNQ2 pot	KCNQ2 pot baseline
CCC1=[N+](CC(=O)c2ccc(C)cc2)CCn2cccc21	0.3	-0.22
Cc1nn(C)cc1/C=N/NC(=O)c1sc2ccccc2c1Cl	0.57	-0.04
Cn1c(SCC(=O)N2CCN(Cc3ccccc3)CC2)nnc1-c1ccncc1	0.46	0.42
CC(=O)c1cccc(NS(=O)(=O)c2c(C)noc2C)c1	0.39	-0.89
CC(=O)c1ccc(NC(=O)c2cc(CC(C)C)on2)cc1	0.03	-0.1
CC1CCCCN1C(=O)CNCC1CCCO1 (stereo unspecified)	0.6	0
CCn1cnc2sc(C(=O)Nc3ccc4c(c3)OCO4)c(C)c2c1=O	0.9	-1.9
COc1ccc(NC(=O)CS(=O)CC(=O)NC2CCCc3ccccc32)cc1 (stereo unspecified)	0.54	1.6
Nn1cnnc1SCC(=O)N(C1CCCCC1)C1CCCCC1	1.7	-0.57
Cc1cc(C)c2c(c1)c1nnc(SCCN3CCCCC3)nc1n2C	1.2	0.21
CCOC(=O)CN1C(=O)C(O)=C(C(C)=O)C1c1ccccc1 (stereo unspecified)	0.56	0.09
COCc1cc(C)nc(SCC(=O)Nc2cccc3cccnc23)c1C#N	0.52	-1
Cc1cc(C)c(NC(=O)CSc2nc(=O)n(CCN3CCOCC3)c3c2CCC3)c(C)c1	0.43	-0.31
CCNC(=S)NNC(=O)c1ccncc1	0.15	-1.7
CCc1cc(=O)oc2cc(OCC(=O)OC)c(Cl)cc12	0.78	-0.01
CC(=O)C1=C(C)Nc2ncnn2C1c1cccc(OCc2ccccc2)c1 (stereo unspecified)	1.1	-1
O=C1S/C(=C/c2ccccc2F)C(=O)N1CCN=C1NS(=O)(=O)c2ccccc21	1.5	0.04
Cc1cccc(-n2c(C)c(-c3ccccc3)[nH]c2=S)c1	0.67	0.01
CCOc1ccc(CNn2cnnc2)cc1	1	3.1
COc1ccc(S(=O)(=O)N2CCC(C(=O)NCC3CCCO3)CC2)cc1OC (stereo unspecified)	2.4	-0.69
COc1ccc(C2CC(C(F)(F)F)n3ncc(C(=O)NCc4cccnc4)c3N2)cc1OC (stereo unspecified)	0.94	-0.96
COc1ccc(C(=O)/C=C/Nc2ccc(S(=O)(=O)Nc3cc(OC)nc(OC)n3)cc2)c(OC)c1	0.06	0.73
O=C(NCCNC(=O)c1cccc(O)c1)c1cccc(O)c1	0.44	-0.31
COc1ccc(CCNC(=O)CC2Nc3cc(C)c(C)cc3NC2=O)cc1OC (stereo unspecified)	1.5	-0.1
CS(=O)(=O)N1CCc2cc(-c3csc(NC(=O)Cc4cccs4)n3)ccc21	1.4	0.26

Reformatted: 5 of the compounds above
KCNQ2 pot | KCNQ2 pot baseline | structure
0.15 | -1.7 | CCNC(=S)NNC(=O)c1ccncc1
0.78 | -0.01 | CCc1cc(=O)oc2cc(OCC(=O)OC)c(Cl)cc12
1.1 | -1 | CC(=O)C1=C(C)Nc2ncnn2C1c1cccc(OCc2ccccc2)c1 (stereo unspecified)
1.5 | 0.04 | O=C1S/C(=C/c2ccccc2F)C(=O)N1CCN=C1NS(=O)(=O)c2ccccc21
0.67 | 0.01 | Cc1cccc(-n2c(C)c(-c3ccccc3)[nH]c2=S)c1

Record cards, as listed above.
Record of CCCN(C(=O)COC(=O)c1[nH]c(C)c(C(=O)OC)c1C)c1c(N)n(Cc2ccccc2)c(=O)[nH]c1=O = KCNQ2 pot = 1.2; KCNQ2 pot baseline = -2
Record of O=C(CCc1n[nH]c(=O)[nH]c1=O)N/N=C/c1ccco1 = KCNQ2 pot = 0.32; KCNQ2 pot baseline = 0.18
Record of N#Cc1cc2ccccc2nc1SCC(=O)Nc1ccccc1N1CCOCC1 = KCNQ2 pot = 0.03; KCNQ2 pot baseline = -0.6

(more compounds)
SMILES	KCNQ2 pot	KCNQ2 pot baseline
O=S(=O)(c1ccc(N2CCCC2)nc1)N1CCOCC1	0.65	-0.27
CN(C)S(=O)(=O)c1cccc(NC(=O)CC23CC4CC(CC(C4)C2)C3)c1	4.9	0.15
FC(F)(F)c1ccc2c(c1)N1CCCC1CN2 (stereo unspecified)	0.53	1.2
O=C(O)c1ccc(S(=O)(=O)Nc2ccc3c(c2)OCCO3)cc1	0.59	-0.86
O=S1(=O)N=C(N(CCO)/N=C/c2ccc(Br)cc2)c2ccccc21	0.6	-0.83
COC(=O)c1[nH]c2cc(OC)ccc2c1NC(=O)CN1CCC(C(N)=O)(N2CCCCC2)CC1	0.43	0.79
O=C(NCc1cn2ccsc2n1)c1cccs1	0.02	-0.04
CC(=O)NNC(=S)Nc1cccc(F)c1	0.72	1.7
O=C(Nc1nccs1)c1cccc2ccccc12	0.19	-0.53
CCOC(=O)CN(C(=O)COc1nc(-c2ccccc2)cc(C)c1C#N)c1ccc(F)cc1	0.14	-0.64
CCCOc1ccc(C(=O)NCC(c2cccs2)N(C)C)cc1OC (stereo unspecified)	0.3	-0.36
COc1cc(N)c(Cl)cc1Cl	2.6	0.32
O=C1CCC(=O)N1c1ccccc1	0.26	0.89
Cc1ccc(NC(=O)CC2(CC(=O)O)CCCC2)c(C)c1	0.5	0.91
COCCn1cnc2c1c(=O)n(CC#N)c(=O)n2Cc1ccccc1	0.17	3.5
Cc1ccc(Nc2nc(-c3sc(NC(=O)c4cccc(Cl)c4)nc3C)cs2)cc1	0.76	0
COCCn1c(=O)[nH]c2cc(C(=O)Nc3cccc(F)c3)ccc2c1=O	1.6	-0.52
COc1cc(Cl)ccc1OCc1cc(C(=O)N2CCN(C)CC2)no1	0.02	-0.13
Cc1cc(NC(=O)Nc2c[nH]c(=O)[nH]c2=O)ccc1Br	0.71	-0.11
COc1ccc(/C=N/Nc2nc(C)nc(N)n2)cc1	0.41	-0.4
CC(=O)c1ccc(C)cc1OC(=O)c1cccc(F)c1	0.2	-0.09
CC1(C)CC(=O)C(=Cc2cn(CCC#N)nc2-c2ccc(F)cc2)C(=O)C1	6.5*	-0.01*
O=C(CCNS(=O)(=O)c1ccccc1)N1CCCC1	0.11	0.21
O=C(CSc1ccc2nnc(-c3cccs3)n2n1)N1CCCC1	0.14	0.36
CCC(=O)N1CCn2c1nc1ccccc12	0.39	-0.38

The list continues.
SMILES	KCNQ2 pot	KCNQ2 pot baseline
Cc1noc(C)c1COc1ccccc1C(=O)NC1CCC(C)CC1 (stereo unspecified)	0.1	-0.86
CC1(C)C(c2cccs2)=[N+]([O-])C2(CCCCC2=O)N1O (stereo unspecified)	0.02	-0.53
CC1CN(C(=O)CCC(=O)NCc2cccnc2)c2ccccc2O1 (stereo unspecified)	0.44	-1.7
COc1ccc(CCNC(=O)CNS(=O)(=O)c2ccc(Br)cc2)cc1	0.94	1.1
CCc1ccc(CNC(=O)CCS(=O)(=O)Cc2ccccc2F)cc1	0.35	-0.61
COc1ccc(Nc2nc(N)nc(C(F)(F)F)n2)c(OC)c1	1	0
CCC(=O)N(Cc1cc(=O)[nH]c2ccccc12)c1ccc(C)cc1	1.2	-0.37
CC(=O)Nc1ccc2c(c1)OCO2	1.1	0.61
COc1cc(NS(=O)(=O)c2ccc(NC(=S)NC(=O)CC(C)C)cc2)nc(OC)n1	0.64	0.88
COc1ccc(C(=O)OCCN=C2NS(=O)(=O)c3ccccc32)cc1OC	0.19	-0.08
CCOC(=O)N1CCN(C(=O)CS(=O)(=O)Cc2nc(-c3cccc(OC)c3)oc2C)CC1	0.1	-1
Cn1c(=O)c2c(ncn2CC(=O)N/N=C/C(Cl)=C/c2ccccc2)n(C)c1=O	2.3	-0.49
Cc1ccc(C(=O)NCCc2ccc(S(N)(=O)=O)cc2)o1	0.54	-0.18
CCCc1nc2ccccc2c(=O)n1/N=C/c1ccc(O)cc1O	0.72	-1.2
Cc1ccc(NC(=O)CC2SC(=NCC3CCCO3)NC2=O)cc1Cl (stereo unspecified)	0.24	-0.53
COCCCNC(=O)Cn1c(=O)n(Cc2ccc(C(=O)NCCc3ccc(OC)c(OC)c3)cc2)c(=O)c2ccccc21	0.58	1.6
O=C(CNS(=O)(=O)c1ccc(Br)s1)N1CCN(C(=O)c2ccco2)CC1	1.5	-0.97
O=C(O)CC(NS(=O)(=O)Cc1ccccc1)c1cccc([N+](=O)[O-])c1 (stereo unspecified)	0.01	2
